Menin-MLL FL inh: qHTS Assay for Inhibitors Targeting the Menin-MLL Interaction in MLL Related Leukemias: Competition With Fluorescein Labeled MLL-derived Peptide. Fluorescence polarization, fluorescein-MLL peptide displacement from menin. FP activity change, % at 61.4 µM. 290,000 tested, under 10 active. AID 1766, 2009; inconclusive = falling polarisation curve, or a change in total fluorescence; inactive = total fluorescence flat and polarisation flat or rising; no compound was filed as active; the % refers to the polarisation; negative = inhibition;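 also: % of control where 0% means no effect; inhibitors lower the polarisation; unlabelled MLL peptide was the positive control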
gsp antag: qHTS for Antagonists of gsp, the Etiologic Mutation Responsible for Fibrous Dysplasia/McCune-Albright Syndrome: qHTS | gsp-mutant cells, cAMP HTRF, 30 min; control for the full effect not named in the record | 340,000 tested, 0.4% active | AID 624288, 2012 | Potency, µM (doses to about 76.9 µM), without a hit: top-dose activity change, negative = inhibition, most hits filed as inhibitors; active = falling curve of any shape with a large fitted effect; inconclusive = falling curve, mostly with a smaller effect; inactive = flat or rising curve; cell line not stated here;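 also: intracellular cAMP measured with PDE inhibitor Ro 20-1724 present during compound exposure; potency is read from the fitted curve at half-maximal effect; % is scaled to controls: 0 for no effect and ±100 for the full control effect; nearly all actives have a fitted effect of over 65% in size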
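HTRF cAMP read-out (cAMP-d2 plus anti-cAMP antibody-K in lysis buffer, 30 min RT). Before lysis, cells are exposed to compounds with […] for 30 min at 37C in DPBS containing Ca/Mg, BSA and Tween 20.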
TRPV1 PAM: HTS Assay for Compounds that Act as Potentiators of the Vanilloid Receptor 1 | 320,000 tested, 0.02% active | TRPV1-expressing cells, Fluo-8 calcium influx, capsaicin EC20 potentiation; host cell line not named in the record; control for the full effect not named in the record | potentiation, % at 8.33 µM; active means potentiation above 80%; inconclusive means 30% to 80%; inactive means below 30%; also: 0% is about no effect
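TRPV1-expressing cells were cultured overnight at 35.5C and loaded with Fluo-8 calcium dye for 40 to 90 min at room temperature. After a 10 s baseline, compound was added and calcium influx was read kinetically for 3 min (ex 480/em 520 nm).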
gsp ag: qHTS for Agonist of gsp, the Etiologic Mutation Responsible for Fibrous Dysplasia/McCune-Albright Syndrome: qHTS; Potency, µM (top dose mostly 76.9 µM), for the others: at the highest dose activation (cAMP increase), most hits filed as activators; AID 624287, 2012; 340,000 tested, 0.13% active; gsp mutant cells, cAMP HTRF, 30 min; control for the full effect not named in the record; active = well fitted activation curve with a large enough effect; inconclusive = small, poorly fitted or top-dose-only effect, or another doubt; inactive = no such curve, though single readings can be large or run the other way; cell line not stated here;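 also: phosphodiesterase inhibitor Ro 20-1724 added with compounds to block cAMP breakdown; potency is read from the fitted curve at half-maximal effect; nearly all actives have a fitted effect of over 60% in size; about a fifth of the inactives were tested at one dose only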
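Cells in DMEM/10% FBS with G418 were pretreated with compounds in DMSO plus […] (300 uM stock) for 30 min at 37C. cAMP was measured by HTRF (cAMP-d2 plus anti-cAMP antibody-K) after 30 min at room temperature.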
ClpP mod: qHTS Assay for Activators of ClpP; 340,000 tested, 1.9% active; Potency, µM (highest dose often 57.5 µM), without a hit: at the highest dose activity change, negative = active; purified B. subtilis ClpP, FRET peptide cleavage, 20 min; active = well fitted falling curve with a large enough effect; inconclusive = small, poorly fitted or top-dose-only effect; inactive = no such curve, though single readings can be large or run the other way; also: potency is read from the fitted curve at half-maximal effect; the source files actives as falling curves though it sought activators and does not explain the sign; nearly all actives have a fitted effect of over 65% in size; many hits overshoot -100%
Target sequence (P80244 whole entry, looked up): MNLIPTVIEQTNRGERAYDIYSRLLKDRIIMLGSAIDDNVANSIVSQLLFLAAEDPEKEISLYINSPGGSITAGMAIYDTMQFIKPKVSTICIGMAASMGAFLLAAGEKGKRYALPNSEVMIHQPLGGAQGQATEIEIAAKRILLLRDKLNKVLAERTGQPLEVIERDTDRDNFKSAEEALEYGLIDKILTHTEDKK
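FRET quenching reversal measured ClpP activation: 10 microg/mL B. subtilis ClpP at pH 8 with the FRET-FV decapeptide, read at 430 nm after 320 nm excitation. The 20-min minus 0-min signal was scaled between DMSO/no-enzyme wells and ADEP (5.8 microM final).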
CtBP-E1A inh: qHTS Assay for Inhibitors of the CtBP/E1A Interaction | CtBP / adenovirus E1A interaction (AlphaScreen) | AlphaScreen GST-E1A/His-CtBP binding, 1536-well; active compounds read low; control for the full effect not named in the record | activity change, % (test concentration not listed) | 340,000 tested, 0.49% active | AID 651724, 2012; in the data active means activity change below about -65%; inconclusive means about -30% to -65%; inactive means above about -30%; also: % is scaled to controls: 0 for no effect and ±100 for the full control effect
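GST-E1A and His-tagged CtBP (125 nM each as 5X stock) were preincubated with pin-transferred compound for 2 h at 37 °C in the dark, then glutathione donor and nickel acceptor beads were added for 1 h before AlphaScreen reading.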
Sfp PPTase inh: qHTS Assay for Inhibitors of Bacillus subtilis Sfp phosphopantetheinyl transferase (PPTase). 4'-phosphopantetheinyl transferase ffp (Bacillus subtilis), Q9F4F7. Biochemical Sfp PPTase activity, qHTS. Potency, µM, for the others: max response, negative = inhibition, most hits filed as inhibitors. 310,000 tested, 3.5% active. AID 1490, 2009; active = well fitted inhibition curve with a large enough effect; inconclusive = small, poorly fitted or top-dose-only effect, or another doubt; inactive = no such curve, though single readings can be large or run the other way;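 also: the enzyme is Sfp with the accession as filed and its product quenches rhodamine fluorescence; potency is read from the fitted curve at half-maximal effect; 0% = enzyme reaction without inhibitor and -100% = no enzyme wells; top concentration of the series not given in the record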
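After 15 min at room temperature with compound, 15 nM Sfp received 5 uM rhodamine-CoA plus 12.5 uM BHQ-2-ybbR (50 mM Hepes pH 7.6, 10 mM MgCl2). Rate came from the fluorescence difference over 30 min, ex 525/em 598 nm.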
* marks the source's active call; other numbers are inactive results; ? = inconclusive; . = not tested or not shown; [ ] = another dose, or the depositor's remark.

canonical_smiles	gsp ag	gsp antag	Menin-MLL FL inh	CtBP-E1A inh	Sfp PPTase inh	TRPV1 PAM	ClpP mod
CN(Cc1cnccn1)C(=O)c1cc(COc2cccc(C(F)(F)F)c2)on1	23%	1%	-2.0	-2	7%	-21	-0.8%
CCOC(=O)N1CCC(N2C(=O)c3ccc(C(=O)Nc4ccc(OC)c(OC)c4)cc3C2=O)CC1	11%	-7%	4.3	-2	0%	-6	-2.0%
CCOc1cccc(/C=N/N2CCN(c3ccc(Cl)cc3)CC2)c1O	-15%	-13%	2.5	-3	5%	1	-0.2%
CCOC(=O)c1ccc(-c2nnc(-c3ccc(Cl)cc3Cl)o2)cc1	-4%	7%	-2.7	3	9%	-7	-13%
CCCn1c(CCc2ccccc2)nnc1SCC(=O)N1CCCC1	7%	2%	1.9	-2	14%	10	0.8%
COC(=O)[C@@H](Cc1ccccc1)NC(=O)NCCc1c[nH]c2ccccc12	-2%[15.4 µM]	-11%	5.6	3	6%	-5	-1.2%
COC(=O)C1CCN(C(=O)/C=C/c2ccc(OC)cc2)CC1	13%	2%	-2.9	4	1%	12	-0.3%
Cc1nc2nc(C)c(NS(=O)(=O)c3ccc(CC(C)C)cc3)c(=O)n2[nH]1	-21%	8%	-1.4	-13	21%	?	-1.5%
CC(C)Oc1ccc(C(=O)N2CCN(C(=O)c3ccco3)CC2)cc1	-2%	12%	.	12	0%	-13	1.2%
COc1ccc(CNCCCSc2ncccn2)c(OC)c1	-12%	-4%	-3.8	.	7%	2	1.4%
COc1ccc(C(=O)Nc2cc3c(cc2C#N)OCO3)cc1S(=O)(=O)NCc1ccco1	24%	-7%	-0.4	-3	1%	-1	-3.2%
COc1ccc(C2CN=NC23CCCc2ccccc2C3=O)cc1 (centres undefined)	?	?	2.1	9	-7%	2	1.7%
CC1=C(C(=O)c2ccccc2)C(c2cn(-c3ccccc3)nc2-c2ccc(Cl)cc2)NC(=S)N1 (centres undefined)	-34%[inhibitor]	-13%	1.2	-10	13%	-6	-1.6%
CCCc1cc(=O)oc2cc(C)cc(OC(C)C(=O)NCC(O)c3ccccc3)c12 (centres undefined)	17%	4%	1.7	2	6%	-4	3.7%
CCOC(=O)[C@@H]1[C@H]2COc3cc(OC)ccc3[C@@H]2N2C(=O)N(c3ccc(Cl)cc3)C(=O)[C@@]12C	.	-2%	1.6	1	5%	-20	0.5%
CC(=O)N=C1C=CC(=CN(O)C(C)(C)Cc2ccccc2)C=C1	.	1%	.	-7	.	-14	-1.0%
O=C(COC(=O)CNC(=O)c1ccccc1F)Nc1ncc(Cl)cc1Cl	-26%	-13%	.	1	.	2	0.9%
COc1ccc(C2c3ccc4ccccc4c3Oc3ncn(CCCO)c(=N)c32)cc1OC (centres undefined)	-4%[15.4 µM]	1%	3.2	3	-1%	4	.
O=C(NCc1cccs1)c1cc2ccccc2o1	7%	5%	-0.3	9	7%	-14	0.8%
O=C(c1ccc(CN2CCc3ccccc3C2)cc1)N1CCCCC1	-7%	0%	1.2	-1	7%	-12	-3.9%
N/C(=N\OC(=O)c1ccccc1)c1cccnc1	-46%[inhibitor]	-4%	5.6	.	5%	-2	-1.4%
COc1ccc(C(=O)N2CCN(Cc3cc(OC)ccc3OC)CC2)cc1	3%	3%	0.0	-1	?	1	-1.2%
Cc1cc(Nc2ccccc2)n(C(=O)c2ccc(Cl)cc2)n1	?	-18%	0.1	4	-14%	-2	-1.3%
Cc1ccc(S(=O)(=O)n2nnc3ccccc32)c(C)c1C	-4%[15.4 µM]	14%	-2.7	14	10%	-6	.
CC(=O)c1c(C)[nH]c(C(=O)Nc2cccc(C)c2C)c1C	14%[15.4 µM]	-2%	4.3	1	9%	-8	.
C=CCNc1nc2c(c(=O)[nH]c(=O)n2C)n1CCCc1ccccc1	-19%	?	?	0	10%	-15	1.6%
CCCCNC(=O)C1CCCN(S(=O)(=O)c2ccc(S(=O)(=O)NCC(C)C)cc2)C1 (centres undefined)	3%	-6%	0.3	2	12%	17	-1.4%
CCN(CC(=O)Nc1cccc(S(N)(=O)=O)c1)Cc1nc2ccccc2c(=O)[nH]1	34%	8%	1.8	-11	50µM*	8	-3.6%
CCOc1ccccc1NC(=O)Cc1ccccc1OC	-5%	?	2.8	7	16%	-1	-0.7%
CCCc1nn(C)c2c(=O)[nH]c(-c3ccccc3OCC)nc12	-6%[15.4 µM]	8%	-9.4	-2	6%	1	20µM*

Reprinted from the part before: four compounds, followed by the next part.
canonical_smiles	gsp ag	gsp antag	Menin-MLL FL inh	CtBP-E1A inh	Sfp PPTase inh	TRPV1 PAM	ClpP mod
CCCCNC(=O)C1CCCN(S(=O)(=O)c2ccc(S(=O)(=O)NCC(C)C)cc2)C1 (centres undefined)	3%	-6%	0.3	2	12%	17	-1.4%
CCN(CC(=O)Nc1cccc(S(N)(=O)=O)c1)Cc1nc2ccccc2c(=O)[nH]1	34%	8%	1.8	-11	50µM*	8	-3.6%
CCOc1ccccc1NC(=O)Cc1ccccc1OC	-5%	?	2.8	7	16%	-1	-0.7%
CCCc1nn(C)c2c(=O)[nH]c(-c3ccccc3OCC)nc12	-6%[15.4 µM]	8%	-9.4	-2	6%	1	20µM*
Oc1c(Br)cc(Br)cc1CNc1ccc(F)cc1	23%	1%	12	?	-27%	-4	.
CCOC(=O)Cc1csc(NC(=O)CSc2nc(C)cc(=O)[nH]2)n1	?	11%	0.7	3	18µM*	17	-0.7%
COc1ccc(/C=C(/NC(=O)c2ccco2)C(=O)NCc2ccco2)cc1	-78%[inhibitor]	.	.	2	.	.	4.1%
NC(=O)c1cccnc1Nc1ccccc1F	11%[15.4 µM]	1%	0.4	-7	-4%	-11	.
O=C(Cn1ncc2c(=O)oc3ccccc3c21)NC1CC1	-42%[inhibitor]	11%	6.2	-1	19%	-3	-2.2%
COc1ccc(N2CCN(C(=O)c3oc4ccccc4c3NC(=O)CCc3cc(OC)no3)CC2)cc1	-13%	-16%	6.3	-24	1%	-1	-2.3%
COc1cc(NC(=S)Nc2cccc(C)n2)cc(OC)c1OC	-63%[inhibitor]	1%	-2.6	.	20%	?	0.3%
NC(=O)CC(NC(=O)Cc1cccc2ccccc12)c1ccc(N2CCCCCC2)c([N+](=O)[O-])c1 (centres undefined)	-5%	-17%	-5.4	-9	9%	1	2.2%
CC(C)OC(=O)c1ccc(COC(=O)c2cccc(-c3nnc(-c4ccccc4)o3)c2)cc1	3%	10%	0.0	6	6%	4	?
COc1ccc(CNc2nc(NC(C)=O)nn2-c2ccccc2)cc1	-29%	-6%	3.7	-9	6%	1	.
O=C(COC(=O)Cc1c(F)cccc1Cl)NC1CCS(=O)(=O)C1 (centres undefined)	3%[15.4 µM]	9%	.	-4	.	-3	-3.0%
O=C(NCc1ccccc1)C(c1ccncc1)N(C(=O)c1csnn1)c1ccccc1F (centres undefined)	-1%	-16%	-6.0	8	16%	1	.
CCOC(=O)c1c(-c2ccc(OCC)cc2)csc1NC(=O)CCN1C(=O)c2ccccc2C1=O	.	.	2.5	.	-3%	1	.
Cc1nc2cc(-c3ccsc3-n3c(C)ccc3C)[nH]n2c(=O)c1Cl	9%[15.4 µM]	?	?	?	?	-1	-0.9%
Cc1ccc(-c2nn3c(C)nnc3s2)cc1NC(=O)CSc1ccc(Cl)cc1	?	1%	-3.5	7	3%	28	-0.2%
CCOc1cc(C#N)c(NC(=O)c2cccnc2Cl)cc1OCC	-28%	-5%	2.5	0	15%	4	1.8%
CN1CCC(=O)N([C@H](CC#N)c2ccccc2)CC1	15%	-7%	-3.8	.	17%	13	-24%
O=C(NNC(=O)c1ccc2c(c1)OCO2)NC12CC3CC(CC(C3)C1)C2	1%	14%	-1.3	-17	10%	14	-2.1%
CSc1ccc(C(c2c(C(=O)O)[nH]c3ccccc23)c2c(C(=O)O)[nH]c3ccccc23)cc1	?	-2%	4.2	4	25%	7	1.8%
Cc1cc(NC(=O)C(C)Oc2ccccc2)no1 (centres undefined)	?	2%	-4.7	4	7%	27	.
COc1ccc(/C(C)=N/NS(=O)(=O)c2ccccc2)c(OC)c1	-2%[15.4 µM]	-3%	-0.1	-1	18%	-4	.
NC(=O)C1CCCN(CC(=O)Nc2ccccc2C(=O)NC2CC2)C1 (centres undefined)	-3%	11%	.	-2	.	1	-4.4%

Compounds as they come; about 5.3% have a hit in one of these screens.
